Screens (PubChem BioAssay)
FGF22 binding = binders of human FGF22 protein, primary screen, FGF22 synaptogenesis inhibitor project, biophysical, thermal shift, single point. Fibroblast growth factor 22 (Homo sapiens), Q9HCT0. recombinant FGF22 thermal shift, SYPRO orange fluorescence; percent of sucrose octasulfate shift, DMSO zero. calls only at 9.99 µM. 1.5% of 340,000 active. AID 651658, 2012;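 active = melting point raised past a set limit in the mean and every replicate; three in four hits are not shown here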
Target sequence (Q9HCT0 whole entry, looked up): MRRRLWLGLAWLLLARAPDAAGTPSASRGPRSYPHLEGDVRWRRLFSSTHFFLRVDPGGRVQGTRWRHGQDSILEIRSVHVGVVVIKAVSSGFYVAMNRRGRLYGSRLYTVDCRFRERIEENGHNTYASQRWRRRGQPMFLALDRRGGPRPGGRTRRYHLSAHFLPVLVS
AF4-AF9 inh = inhibitors of AF4 peptide binding to AF9, primary screen, biochemical, AlphaScreen, biotin-AF4 peptide, FLAG-AF9, single point; inhibition, % at 10 µM; 0.47% of 350,000 active; Protein AF-9 (Homo sapiens), P42568; AID 651704, 2012;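 active = every replicate reaching a set inhibition limit, whatever the replicate mean, cut at about 25% in these data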;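 also: 0% = plate neutral control median and 100% = total signal loss; the record names both 10 and 1 µM as test concentration; the first replicate is given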
Target sequence (P42568 whole entry, looked up): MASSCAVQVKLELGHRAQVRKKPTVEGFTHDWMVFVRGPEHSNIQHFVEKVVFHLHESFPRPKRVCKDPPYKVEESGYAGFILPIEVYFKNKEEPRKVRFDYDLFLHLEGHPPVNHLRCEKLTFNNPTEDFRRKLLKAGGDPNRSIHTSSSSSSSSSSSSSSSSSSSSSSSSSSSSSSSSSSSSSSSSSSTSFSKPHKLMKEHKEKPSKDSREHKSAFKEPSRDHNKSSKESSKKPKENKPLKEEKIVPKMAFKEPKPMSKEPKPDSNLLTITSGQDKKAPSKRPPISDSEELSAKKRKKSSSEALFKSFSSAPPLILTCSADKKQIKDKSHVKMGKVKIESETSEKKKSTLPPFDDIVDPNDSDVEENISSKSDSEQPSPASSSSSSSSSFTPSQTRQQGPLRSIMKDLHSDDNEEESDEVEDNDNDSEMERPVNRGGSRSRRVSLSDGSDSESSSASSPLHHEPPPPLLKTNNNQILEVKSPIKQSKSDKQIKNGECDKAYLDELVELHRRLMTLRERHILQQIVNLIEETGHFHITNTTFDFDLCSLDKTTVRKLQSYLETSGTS
Numbers without * were called inactive; i = inactive; + = active, no number.

SMILES	FGF22 binding	AF4-AF9 inh
Cc1noc(C)c1NC(=O)N(C)C[C@@H]1OCCCC[C@@H](C)Oc2ccc(NC(=O)Nc3ccc(C(F)(F)F)cc3)cc2C(=O)N([C@@H](C)CO)C[C@H]1C	i	2.1
COc1ccc(NC(=O)N[C@H]2CC[C@H](CC(=O)NC3CCCCC3)O[C@H]2CO)cc1	i	-2.9
CNC[C@@H]1Oc2ccc(NC(=O)C3CCCCC3)cc2CC(=O)N([C@H](C)CO)C[C@@H]1C	i	-5.1
COc1ccc(NC(=O)N(C)C[C@H]2Oc3ccc(NS(=O)(=O)c4cn(C)cn4)cc3CC(=O)N([C@@H](C)CO)C[C@H]2C)cc1	i	-1.6
C[C@@H]1CN([C@@H](C)CO)C(=O)Cc2cc(NC(=O)Nc3ccc(C(F)(F)F)cc3)ccc2O[C@H]1CN(C)Cc1ccc2c(c1)OCO2	+	0.4
C[C@@H]1CN([C@@H](C)CO)C(=O)c2cccc(NC(=O)c3cnccn3)c2O[C@@H]1CN(C)Cc1ccc(-c2ccccc2)cc1	i	8.1
CN1C[C@H](O)COC[C@H]2O[C@H](CC(=O)NC3CCCC3)CC[C@@H]21	i	-2.4
COc1ccc(CN(C)C[C@H]2Oc3c(NS(=O)(=O)c4ccc(OC)cc4)cccc3C(=O)N([C@@H](C)CO)C[C@@H]2C)cc1	i	1.0
COc1ccccc1-c1ccc2c(c1)O[C@H](CN(C)C(=O)c1ccncc1)[C@@H](C)CN([C@@H](C)CO)S2(=O)=O	i	7.3
CN(C)CC#Cc1ccc([C@H]2[C@@H](CO)N3CCCCN(C(=O)C4CC4)C[C@@H]23)cc1	i	-8.9
COc1ccc2c3c(n(C)c2c1)[C@H](CO)N(C)CC31CCN(C(=O)c2ccccc2F)CC1	i	0.4
C[C@@H]1CN([C@@H](C)CO)C(=O)Cc2cc(NS(=O)(=O)c3ccc(F)cc3)ccc2O[C@H]1CN(C)C(=O)Nc1cccc2ccccc12	i	-1.3
Cc1ccc(S(=O)(=O)Nc2ccc3c(c2)C(=O)N([C@@H](C)CO)C[C@@H](C)[C@H](CN(C)C(=O)Nc2cccc4ccccc24)OCCCC[C@H](C)O3)cc1	i	0.6
COc1ccc(CN(C)C[C@@H]2OCCCC[C@@H](C)Oc3ccc(NC(=O)Nc4ccc(F)cc4)cc3C(=O)N([C@@H](C)CO)C[C@@H]2C)cc1	i	8.6
CCCC#Cc1ccc2c(c1)O[C@@H](CN(C)S(=O)(=O)c1cccc(F)c1)[C@@H](C)CN([C@@H](C)CO)S2(=O)=O	i	1.5
Cc1ccc(S(=O)(=O)N(C)C[C@H]2OCCCC[C@H](C)Oc3ccc(NS(=O)(=O)c4cn(C)cn4)cc3C(=O)N([C@H](C)CO)C[C@@H]2C)cc1	i	1.1
C[C@H](CO)N1C[C@H](C)[C@@H](CN(C)Cc2ccc(Oc3ccccc3)cc2)Oc2ccc(NC(=O)Cn3cnnn3)cc2CC1=O	i	9.9
C[C@H]1CN([C@@H](C)CO)C(=O)Cc2cc(NC(=O)c3ccncc3)ccc2O[C@@H]1CN(C)Cc1ccccc1	i	-14.3
C[C@H]1CN([C@@H](C)CO)C(=O)c2cc(NS(=O)(=O)c3ccc(Cl)cc3)ccc2O[C@@H]1CN(C)Cc1ccccc1	i	-6.1
O=C(Cc1ccccc1)N1CC[C@H]2[C@H](CO)Nc3ccc(-c4cccc(F)c4)cc3[C@H]21	i	3.9
Cc1cc(C(=O)Nc2cccc3c2O[C@@H](CN(C)S(=O)(=O)c2c(C)noc2C)[C@@H](C)CN([C@@H](C)CO)C3=O)n(C)n1	i	-2.3
CC(=O)N(C)C[C@@H]1Oc2ncc(C#C[C@@H](C)O)cc2C(=O)N([C@H](C)CO)C[C@@H]1C	i	-4.6
C[C@@H]1CN([C@H](C)CO)C(=O)c2cc(NC(=O)C3CC3)ccc2O[C@@H]1CN(C)Cc1ccc(C(F)(F)F)cc1	i	-0.1
C[C@H]1CN([C@@H](C)CO)S(=O)(=O)c2ccc(C#Cc3ccccc3F)cc2O[C@H]1CN(C)C(=O)Cc1ccccc1	i	-11.3
C[C@@H]1CCCCO[C@H](CN(C)S(=O)(=O)c2ccc(F)cc2)[C@@H](C)CN([C@@H](C)CO)C(=O)c2cc(N(C)C)ccc2O1	i	4.0
C[C@@H](NC(=O)[C@@H]1N[C@@H]2c3ccc(-c4cncnc4)c(=O)n3C[C@@H]2[C@H]1CO)c1ccccc1	i	1.2
CO[C@@H]1CN(C)C(=O)c2cc(NC(=O)Nc3cccc(Cl)c3)ccc2OC[C@@H](C)NC[C@H]1C	i	5.7
CC(C)CC#Cc1ccc2c(c1)O[C@@H](CN(C)C(=O)CN(C)C)[C@H](C)CN([C@H](C)CO)S2(=O)=O	i	2.9
CC=Cc1ccc2n(c1=O)C[C@H]1[C@H](CO)[C@@H](C(=O)NCC3CC3)[C@@H]2N1C(=O)Nc1cc(F)ccc1F (mixture of isomers)	i	-0.5
CO[C@H]1CN(C)C(=O)c2cc(NC(C)=O)ccc2OC[C@@H](C)N(C(=O)CC2CC2)C[C@H]1C	i	12.5
C[C@H](CO)N1C[C@H](C)[C@@H](CN(C)Cc2ccc3c(c2)OCO3)Oc2ccc(NC(=O)Nc3ccccc3)cc2CC1=O	i	12.8
C[C@H](CO)N1C[C@H](C)[C@H](CN(C)Cc2ccc(Oc3ccccc3)cc2)Oc2c(NC(=O)NC3CCCCC3)cccc2C1=O	i	5.1
COc1ccc2c3c([nH]c2c1)[C@H](CO)N(Cc1ccccc1F)CC31CN(C)C1	i	14.2
COc1ccc(NC(=O)N(C)C[C@H]2Oc3ncc(-c4ccc(C#N)cc4)cc3C(=O)N([C@@H](C)CO)C[C@H]2C)cc1	i	-0.6
CCCNC(=O)N(C)C[C@@H]1Oc2cc(Br)ccc2S(=O)(=O)N([C@H](C)CO)C[C@H]1C	i	-2.0
C[C@@H]1CN([C@@H](C)CO)C(=O)c2cc(NC(=O)Cc3cn(C)c4ccccc34)ccc2O[C@@H]1CN(C)C(=O)Nc1ccccc1	i	6.3
O=C(C[C@@H]1CC[C@@H]2[C@H](COC[C@H](O)CN2CC2CCOCC2)O1)NCc1ccc(Cl)cc1	i	-2.2
CO[C@H]1CN(C)C(=O)c2cc(NC(=O)Nc3cc(F)ccc3F)ccc2OC[C@H](C)N(C)C[C@H]1C	i	-17.7
COc1ccc(-c2cnc3c(c2)C(=O)N([C@H](C)CO)C[C@@H](C)[C@H](CN(C)Cc2cccnc2)O3)cc1	i	-6.1
COc1ccc(S(=O)(=O)Nc2ccc3c(c2)C(=O)N([C@H](C)CO)C[C@H](C)[C@H](CN(C)S(=O)(=O)c2ccc(F)cc2)OCCCC[C@H](C)O3)cc1	i	3.7
C[C@H](CO)N1C[C@H](C)[C@@H](CN(C)Cc2ccc(C(F)(F)F)cc2)Oc2c(NC(=O)NC3CCCCC3)cccc2C1=O	i	2.9
O=C(OC[C@@H]1[C@H]2c3ccccc3OC1(CO)N=C1SCC(=O)N12)c1ccccc1	i	-1.2
COc1ccc(C#Cc2ccc([C@H]3[C@@H](CO)N4CCCCN(C(=O)c5ccncc5)C[C@H]34)cc2)cc1	i	3.8
Cc1ccc(S(=O)(=O)N(C)C[C@H]2Oc3ccc(NC(=O)NC4CCCCC4)cc3C(=O)N([C@@H](C)CO)C[C@@H]2C)cc1	i	-1.5
COc1ccc(NC(=O)Nc2ccc3c(c2)C(=O)N([C@H](C)CO)C[C@H](C)[C@@H](CN(C)C(=O)Nc2c(C)noc2C)OCCCC[C@@H](C)O3)cc1	i	-2.7
Cc1ccccc1S(=O)(=O)N1[C@@H](C#N)[C@H](c2ccc(-c3ccccc3)cc2)[C@@H]1CO	i	-0.1
COc1ccccc1-c1cccc(-c2nc(C(=O)N3CCN(C)CC3)cc3c2[C@H](CCO)N([S@@](=O)C(C)(C)C)C3)c1	i	-2.6
C[C@H]1CN([C@@H](C)CO)C(=O)c2ccccc2-c2ccccc2CO[C@@H]1CN(C)C(=O)c1cc(Cl)cc(Cl)c1	i	2.0
CN1c2ccc(-c3ccccc3F)cc2[C@H]2[C@H](CCN2C(=O)c2ccccn2)[C@@H]1CO	i	-3.6
CNC[C@H]1Oc2cc(-c3cncnc3)ccc2S(=O)(=O)N([C@@H](C)CO)C[C@@H]1C	i	1.1

Record cards (already shown):
Listed for CN1c2ccc(-c3ccccc3F)cc2[C@H]2[C@H](CCN2C(=O)c2ccccn2)[C@@H]1CO → FGF22 binding: i; AF4-AF9 inh: -3.6
Listed for Cc1ccc(S(=O)(=O)N(C)C[C@H]2Oc3ccc(NC(=O)NC4CCCCC4)cc3C(=O)N([C@@H](C)CO)C[C@@H]2C)cc1 → FGF22 binding: i; AF4-AF9 inh: -1.5
Listed for COc1ccccc1-c1cccc(-c2nc(C(=O)N3CCN(C)CC3)cc3c2[C@H](CCO)N([S@@](=O)C(C)(C)C)C3)c1 → FGF22 binding: i; AF4-AF9 inh: -2.6

Back to the main list with the two entries that preceded the break.
SMILES	FGF22 binding	AF4-AF9 inh
CN1c2ccc(-c3ccccc3F)cc2[C@H]2[C@H](CCN2C(=O)c2ccccn2)[C@@H]1CO	i	-3.6
CNC[C@H]1Oc2cc(-c3cncnc3)ccc2S(=O)(=O)N([C@@H](C)CO)C[C@@H]1C	i	1.1
CCNC(=O)C[C@@H]1CC[C@H]2[C@@H](COc3ccc(NC(=O)c4cccc(OC)c4)cc3C(=O)N2C)O1	i	-0.3
CN1CCN(C(=O)C[C@H]2CC[C@@H]3[C@H](COC[C@@H](O)CN3CC3CCOCC3)O2)CC1	i	-2.2
CCC(=O)N(C)C[C@@H]1Oc2ncc(C#Cc3ccc(OC)cc3)cc2C(=O)N([C@H](C)CO)C[C@@H]1C	i	1.7
CC(C)CC#Cc1cnc2c(c1)C(=O)N([C@@H](C)CO)C[C@H](C)[C@@H](CN(C)C(=O)c1cccc(F)c1)O2	i	-7.8
COc1ccc(CN(C)C[C@@H]2OCCCC[C@H](C)Oc3ccc(NC(=O)Nc4ccc(C(F)(F)F)cc4)cc3C(=O)N([C@H](C)CO)C[C@@H]2C)cc1	i	7.6
COCC#Cc1ccc2c(c1)O[C@H](CN(C)Cc1ccc3c(c1)OCO3)[C@@H](C)CN([C@@H](C)CO)S2(=O)=O	i	6.2
Cc1ccc(-c2cnc3c(c2)C(=O)N([C@@H](C)CO)C[C@H](C)[C@H](CN(C)CC2CCOCC2)O3)cc1	i	-3.0
OC[C@H]1[C@@H](c2ccccc2)[C@@H](CNCC2CCC2)N1CC1CC1	i	0.8
COc1ccc(NC(=O)Nc2ccc3c(c2)C(=O)N([C@@H](C)CO)C[C@@H](C)[C@H](CN(C)Cc2ccccc2)O3)cc1	i	2.6
CO[C@@H]1CN(C)C(=O)c2ccc(NC(C)=O)cc2OC[C@H](C)N(C(=O)c2ccccc2)C[C@H]1C	i	-0.7
C[C@H]1CN([C@@H](C)CO)S(=O)(=O)c2ccc(C#Cc3ccccn3)cc2O[C@@H]1CN(C)Cc1ccccc1	i	0.0
COc1ccc(S(=O)(=O)Nc2ccc3c(c2)CC(=O)N([C@@H](C)CO)C[C@H](C)[C@H](CN(C)Cc2ccc(Cl)c(Cl)c2)O3)cc1	i	0.2
CC(C)NC(=O)N(C)C[C@H]1OCCCC[C@@H](C)Oc2ccc(NS(=O)(=O)c3cn(C)cn3)cc2C(=O)N([C@@H](C)CO)C[C@H]1C	i	-3.0
COc1ccc(CN2C[C@H](C)[C@@H](OC)CN(C)C(=O)c3ccc(NC(=O)C4CC4)cc3OC[C@@H]2C)cc1	i	-0.9
O=C(Nc1ccc2c(c1)[C@@H]1C[C@@H](CC(=O)N3CCc4ccccc4C3)O[C@@H](CO)[C@@H]1O2)c1cccnc1	i	-0.6
CC(C)NC(=O)N(C)C[C@@H]1OCCCC[C@@H](C)Oc2ccc(NC(=O)CCCN(C)C)cc2C(=O)N([C@H](C)CO)C[C@@H]1C	i	-2.4
COc1ccc2c3c([nH]c2c1)[C@@H](CO)N(C)CC31CN(S(=O)(=O)c2ccc(C)cc2)C1	i	6.9
O=C(Cc1cccnc1)N1CC(=O)N2[C@H](CO)[C@@H](c3ccc(C#CC4CCCCC4)cc3)[C@H]2C1	i	5.5
CC(C)NC(=O)Nc1ccc2c(c1)C(=O)N([C@H](C)CO)C[C@H](C)[C@@H](CN(C)CC1CCCCC1)OCCCC[C@@H](C)O2	i	-2.2
C[C@H](NC(=O)C[C@@H]1C=C[C@@H](NC(=O)C2CCOCC2)[C@@H](CO)O1)c1ccccc1	i	0.0
Cc1ccc(S(=O)(=O)Nc2ccc3c(c2)C(=O)N([C@@H](C)CO)C[C@H](C)[C@H](CN(C)C(=O)Nc2ccc(C(F)(F)F)cc2)OCCCC[C@H](C)O3)cc1	i	-0.2
O=C(C[C@H]1CC[C@H]2NC[C@@H](O)COC[C@@H]2O1)NC1Cc2ccccc2C1	i	4.2
C[C@H](CO)N1C[C@H](C)[C@H](CN(C)S(=O)(=O)c2cccc(F)c2)Oc2ncc(C#CC3CCCC3)cc2C1=O	i	1.2
O=C(C[C@H]1C=C[C@H](NC(=O)c2ccc(F)cc2)[C@@H](CO)O1)NCCc1ccncc1	i	-2.7
COc1ccccc1C(=O)N1C[C@H]2[C@@H](c3ccccc31)[C@@H](CO)N2C(=O)Cc1cccnc1	i	2.2

Some of the compounds tested, so the mix of outcomes need not match the whole.
